# VDR inhibitor: inhibitors of human vitamin D receptor; 400,000 compounds, 0.93% hits; P11473; VDR-SRC2-3 peptide fluorescence polarization, 2 h; Potency, µM, for inactives: max response, negative = inhibition, hits mostly inhibitors; active means well fitted inhibition curve with a large enough effect; inconclusive means small, poorly fitted or top-dose-only effect, or another doubt; inactive means no such curve, though single readings can be large or run the other way; further: series mostly up to about 120 µM
# Target sequence (P11473 whole entry, looked up): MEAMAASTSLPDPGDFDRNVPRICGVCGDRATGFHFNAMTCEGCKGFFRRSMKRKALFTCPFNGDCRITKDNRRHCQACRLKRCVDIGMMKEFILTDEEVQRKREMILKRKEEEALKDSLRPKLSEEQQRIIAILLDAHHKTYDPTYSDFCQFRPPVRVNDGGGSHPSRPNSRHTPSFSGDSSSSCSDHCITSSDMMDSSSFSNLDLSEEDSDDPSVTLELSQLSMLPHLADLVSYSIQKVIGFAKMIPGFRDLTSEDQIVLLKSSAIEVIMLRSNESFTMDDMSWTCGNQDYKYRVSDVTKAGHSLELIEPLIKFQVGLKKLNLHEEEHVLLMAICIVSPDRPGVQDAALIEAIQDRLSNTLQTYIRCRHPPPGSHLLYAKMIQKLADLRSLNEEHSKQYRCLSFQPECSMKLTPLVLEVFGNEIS
#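 Inhibition of the VDR/SRC2-3 peptide interaction is quantified by fluorescence polarization. Compounds (23 nl, pintool) incubate with the reagents for 2 hours at ambient room temperature.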
# Numbers without * were called inactive; ? = inconclusive; & = joins results of further samples. On the % scale 0 is the no-effect control and ±100 the full control effect; potency means the concentration at half of the fitted maximal effect. Some of the compounds tested (hit frequency here may not be typical).
compound	VDR inhibitor
COc1ccc(NC(=O)CCC(=O)Nc2cc(OC)c(NC(=O)c3ccco3)cc2OC)c(OC)c1	11%
CC1C(=O)CCN(C(C)C)C1C (stereo not given)	4%
COc1cccc(-n2cc3c(=O)n(C)c(=O)n(C)c3c2)c1	14%
Cc1cccc(CNC(=O)C(C)n2nc(C)c3c(C)n(-c4ccccc4)nc3c2=O)c1 (stereo not given)	-3%
CN1C2C=C(N(CCc3ccccc3)C(=O)c3ccc(Cl)cc3)CC1CC2 (stereo not given)	-15%
Cc1ccc(-n2c(=S)[nH]c3sc4c(c3c2=O)CCC4)cc1	6%
Cc1ccc(NC(=O)CCCNC(=O)c2ccc(Cl)cc2)c(O)c1	2%
CC(C)(C)c1ccc(C(=O)NNC(=O)CCc2ccccc2)cc1	-22%
CCn1c(CCCOc2ccc(Cl)cc2Cl)nnc1SCC(=O)Nc1cccc(F)c1	15%
COc1ccc(CNc2ccccc2)cc1Br	16%
CCc1cc(C(=O)NNC(=S)Nc2cccc(C)c2)cs1	-1%
CCOC(=O)c1ccc(NC(=O)c2nc[nH]c2C(=O)NCC(=O)OC(C)(C)C)cc1	19%
COC(=O)CCC(=O)OC1(C)C(=O)C2=CN(CCc3c[nH]c4ccccc34)C(c3ccc(OC)cc3)=CC2=C(Br)C1=O (stereo not given)	-28%
CC[C@H](C)[C@H]1CNC(=S)N1CC1CCN(CCCCc2ccccc2)CC1	-16%
O=S(=O)(c1ccc(Cl)cc1)c1nc(-c2ccccc2Br)oc1NCc1ccccc1	-12%
Cc1cc(NC(=O)c2ccccc2F)ccc1-c1nc2ccccc2s1	5%

# Part of the list above, with each value named.
CC[C@H](C)[C@H]1CNC(=S)N1CC1CCN(CCCCc2ccccc2)CC1
  VDR inhibitor: -16%
O=S(=O)(c1ccc(Cl)cc1)c1nc(-c2ccccc2Br)oc1NCc1ccccc1
  VDR inhibitor: -12%

# (more compounds)
compound	VDR inhibitor
Cc1cc(NC(=O)CSc2ccccn2)no1	6%
CCOC(=O)c1cn[nH]c1NC(=S)Nc1ccccc1	-5%
Cc1[nH]n(-c2ccccc2)c(=O)c1C=Nc1ccc(S(=O)(=O)NC(N)=O)cc1	-3%
COc1ccc(S(=O)(=O)NC(CC(=O)NCc2ccco2)c2ccco2)cc1 (stereo not given)	6%
Cc1cccc(/C=C/c2onc(C)c2S(=O)(=O)N2CCC(C(=O)NC(C)(C)C)CC2)c1	-11%
CCOC(=O)Cc1csc(NC(=O)c2ccc(Br)cc2)n1	5%
Cc1ccc(C(=O)NCCCNC(=O)c2ccc(Cl)cc2)cn1	-13%
Cc1ccc(CNC(=O)c2cccn2-c2nnc(N3CCCC3)s2)cc1	5%
Cc1ccccc1NC(=S)NN1CCN(C)CC1	3%
CC(CNC(=O)c1cc2cc(S(=O)(=O)N3CCCCC3)ccc2n1C)c1ccccc1 (stereo not given)	0%
CCC1(C)Cc2ccccc2-c2nc(NCCO)n(-c3ccc(C)cc3)c(=O)c21 (stereo not given)	-16%
C=CCOc1ccc(/C(O)=C2\C(=O)C(=O)N(CCOC)C2c2cccnc2)cc1 (stereo not given)	3%
CCOc1ccc(N(C)S(=O)(=O)c2ccc(C)c(C(=O)N3CCN(Cc4ccc5c(c4)OCO5)CC3)c2)cc1	1%
CCOc1ccc(NC(=O)c2ccco2)cc1S(=O)(=O)N1CCCC1	2%
CC1(C)NC(=O)N(CC(O)CNC23CC4CC(CC(C4)C2)C3)C1=O (stereo not given)	3%
COc1ccc(CCNC(=S)N2CCN(S(=O)(=O)c3ccccc3F)CC2)cc1	1%
O=C(CN1CCN(c2ccccc2)CC1)NC(=O)NCc1ccccc1	18%
CCOc1ccc(CNC(=O)CSc2nnc(C)c3c(C)n(-c4ccccc4)nc23)cc1	25%
COc1cccc(N2CCN(C(=O)CCSCc3ccccc3F)CC2)c1	2%&4%
CCC(Oc1ccccc1)C(=O)Nc1ccc(S(=O)(=O)Nc2ncccn2)cc1 (stereo not given)	14%
S=c1[nH]nc(COc2ccccc2)n1/N=C/c1ccncc1	4%
COc1ccccc1OCCNS(=O)(=O)c1ccc2oc3ccccc3c2c1	-10%
COc1ccc(CCNC(=O)CSCC(=O)Nc2cc(S(C)(=O)=O)ccc2Cl)cc1	-26%
N#CC1=C(N)NC(SCc2ccccc2)=C(C#N)C12CCCC2	?
COc1ccc(CN2CCN(C(=O)c3cccc4ccccc34)CC2)cc1Br	4%
Cc1cc(Br)ccc1NC(=O)CCNS(=O)(=O)c1cccc2nonc12	6%
O=C(C1=NN[C@@H]2C(=O)N(c3cccc(F)c3)C(=O)[C@H]12)c1ccc2ccccc2n1	-19%
O=S1(=O)c2ccccc2N(Cc2cccc(C(F)(F)F)c2)c2ccccc21	-4%
O=C(CCSc1nc(-c2ccco2)cc(C(F)(F)F)n1)NCCN1CCOCC1	-1%
COC(=O)c1ccc(N=Nc2c(C)[nH]n(-c3ccccc3)c2=O)cc1	-7%
CC1CCN(S(=O)(=O)c2ccc(NC(=O)c3ccccc3F)cc2)CC1	?
COc1ccc(CCC(=O)NNC(=O)Nc2ccccc2Cl)cc1	-20%

# Random excerpt: five compounds from above.
compound	VDR inhibitor
COC(=O)CCC(=O)OC1(C)C(=O)C2=CN(CCc3c[nH]c4ccccc34)C(c3ccc(OC)cc3)=CC2=C(Br)C1=O (stereo not given)	-28%
Cc1ccccc1NC(=S)NN1CCN(C)CC1	3%
CN1C2C=C(N(CCc3ccccc3)C(=O)c3ccc(Cl)cc3)CC1CC2 (stereo not given)	-15%
COc1ccc(NC(=O)CCC(=O)Nc2cc(OC)c(NC(=O)c3ccco3)cc2OC)c(OC)c1	11%
CCOc1ccc(NC(=O)c2ccco2)cc1S(=O)(=O)N1CCCC1	2%

# New compounds follow.
compound	VDR inhibitor
C=CCN1N=C(/C=C/c2ccc(C)cc2)CCC1=O	1%
O=C(Cn1cnc2c(cnn2-c2ccccc2)c1=O)NCc1ccccc1	0%
CCOC(=O)c1[nH]c2cc3c(cc2c1NC(=O)CN1CCCC1)OCO3	-3%
CCOC(=O)/C=c1\s/c(=C(\C#N)C(N)=O)n(-c2ccccc2)c1=O	-9%
COc1cccc(C(=O)N2CCN(S(=O)(=O)Cc3ccccc3)CC2)c1	-8%
Cc1c(Cl)ccc2c1NC(=O)[C@]21N[C@@H](Cc2ccccc2)[C@H]2C(=O)N(c3ccc(F)cc3)C(=O)[C@H]21	-1%
O=C(COC(=O)CCc1c[nH]c2ccccc12)NCc1ccc2c(c1)OCO2	0%
CC1(C)C(=O)NCCN1C(=O)CC1C(=O)NCCN1Cc1cccc(C(F)(F)F)c1 (stereo not given)	20%

# Reformatted field by field: entries from further up.
O=C(Cn1cnc2c(cnn2-c2ccccc2)c1=O)NCc1ccccc1
- VDR inhibitor: 0%

CC1(C)C(=O)NCCN1C(=O)CC1C(=O)NCCN1Cc1cccc(C(F)(F)F)c1 (stereo not given)
- VDR inhibitor: 20%

# (list continues)
compound	VDR inhibitor
CN(C)c1nc(Oc2ccc(=O)[nH]n2)nc(N2CCOCC2)n1	-10%
CCC(C)NC(=O)c1c(N)n(/N=C/c2ccccn2)c2nc3ccccc3nc12 (stereo not given)	16%
Cc1ccccc1N(CC(=O)NCc1ccco1)C(=O)CNS(=O)(=O)c1ccc(F)cc1	10%
COc1cc(C=O)ccc1OCCCCOc1ccccc1[N+](=O)[O-]	-10%
C[C@H](NC(=O)OC(C)(C)C)C(=O)NCC1CCC(C(=O)O)CC1 (stereo not given in full)	-12%
CCCn1nc(C(=O)Nc2ccc(-n3cnnn3)cc2)c2ccccc2c1=O	-17%
O=c1[nH]c2ccc(NCc3ccc(-c4ccc(Br)cc4)o3)cc2[nH]1	8%
COc1ccccc1C(CNC(=O)c1cccc(NS(=O)(=O)c2ccc(C)c(F)c2)c1)N(C)C (stereo not given)	-12%
CCOc1ccc(NC(=O)CCn2c(=S)oc3ccccc32)cc1	?
CN1CCc2c(sc(NC(=O)CSc3ccccc3)c2-c2nc3ccccc3s2)C1	-19%
O=C(NCc1cccnc1)c1c(O)c2cccc3c2n(c1=O)CCC3	-4%
Cc1ccc2c(c1)N(CC(=O)N1CCOCC1)C(=O)C(C)O2 (stereo not given)	2%
OC1(CN2CCOCC2)C2CN3CCN(C2)CC1(c1ccccc1)C3 (stereo not given)	-14%
CCOc1cccc(NC(=O)C2CCCN(S(=O)(=O)c3ccc(-n4cnnn4)cc3)C2)c1 (stereo not given)	-23%
COc1cc2oc(=O)cc(-c3ccc(-c4cccc(N)c4)cc3)c2c(OC)c1OC	?
Cc1ccn2c(=O)nc(SCc3cccc(C(F)(F)F)c3)nc2c1	-2%
NS(=O)(=O)c1ccc(CCNC(=O)c2ccccc2[N+](=O)[O-])cc1	-24%
O=C(COC(=O)c1ccc([N+](=O)[O-])cc1)Nc1ccccc1C(=O)NC1CC1	-2%
CCc1nnc(NC(=O)Cc2cccs2)s1	-10%
Cc1occc1-c1nnc(SCC(=O)NCc2cccs2)n1CC1CCCO1 (stereo not given)	-12%
O=C(CSc1nnc(-c2ccncc2)n1Cc1ccco1)Nc1ccccc1F	-15%
O=[N+]([O-])c1cc(Cl)ccc1Sc1ccccn1	-13%
O=C(Oc1ccc2c(c1)OCC2=O)c1ccccc1	-9%
CCOc1ccccc1/C=C/c1onc(C)c1S(=O)(=O)N1CCC(C(=O)NC)CC1	-5%
CCOc1ccc(Br)cc1S(=O)(=O)Nc1ccc(C(=O)Nc2ccc(C)cc2)cc1	-13%
COCCN(Cc1nc(-c2ccc(-c3ccccc3)cc2)oc1C)C(C)C	0%
COc1ccc(S(=O)(=O)N(C)c2ccc(OC(=O)C(C)Oc3ccc(F)cc3)cc2)cc1 (stereo not given)	-14%
O=C(CSc1nc2ccccc2[nH]1)NCc1ccc2c(c1)OCO2	-16%
N#C/C(=C\c1ccc(Cl)cc1)c1nc(-c2cc3c(ccc4ccccc43)oc2=O)cs1	-4%
O=C(NCc1ccc2c(c1)OCO2)c1ccc(CS(=O)(=O)Cc2cccc(Cl)c2)o1	24%
O=C(O)c1cccc2c1-c1ccc(Cl)cc1C2	-17%
CCOc1ccc(/C=N/NC(=O)Cn2ccnc2C)cc1	5%
Cc1ccc(Oc2ccc(Cl)cc2N)cc1	22%
COC(=O)NNC(=O)COc1cc(C)c(Br)cc1C(C)C	12%
CN1C2CCC1/C(=C\c1ccc(F)cc1)C(=O)/C2=C/c1ccc(F)cc1	?
CC(C)CNC(=O)CN(C1CCCCC1)S(C)(=O)=O	0%
COc1cc(NC(=O)c2ccc([N+](=O)[O-])o2)ccc1NC(=O)c1cccs1	-4%
O=c1[nH]c(N2CCOCC2)nc2ccccc12	-4%
CC[C@@H](C)CN1C(=O)N[C@@H](c2ccccc2)C(C(C)=O)=C1C	-4%
CC(=O)Nc1ccccc1NC(=O)c1ccc(C)cc1C	?
COC(=O)c1ccc(N2CCN(C(=O)c3ccccc3)CC2)c(NC(C)=O)c1	1%
O=C(Cc1ccc(Cl)c(Cl)c1)Nc1ccccc1N1CCOCC1	1%
CCC(=O)Nc1ccc2nc(C3CC3)n(Cc3ccccc3)c(=O)c2c1	3%
Cc1cccc(NC(=O)c2oc3ccc(S(=O)(=O)N4CCCCC4)cc3c2C)c1C	2%
CCOC(=O)c1cc(CC)sc1/N=C/c1c(O)ccc2ccccc12	7%
COc1ccc(CNCc2c(C(=O)O)c(C)n(Cc3ccccc3C)c2C)cc1OC	11%
COc1ccccc1NC(=O)CSc1nc2ccccc2nc1N1CC(C)OC(C)C1 (stereo not given)	-31%
CCOC(=O)C1C(=O)C(C(C)=O)C(=O)CC1CC(C)SCC (stereo not given)	48%
COc1ccc(-c2cn3cccnc3n2)cc1NS(=O)(=O)c1ccccc1	12%
O=c1c(/C=N\NS(=O)(=O)c2ccccc2)coc2ccc(Cl)cc12	4%
CCCCn1c2nc3ccccc3nc2c2c(=O)n(-c3ccccc3)cnc21	-14%
COC(=O)C1=C(C)NC=C([N+](=O)[O-])C1c1ccc(OC)cc1 (stereo not given)	-10%
CN1C(=O)C(=O)/C(=C(/O)c2ccc(Br)cc2)C1c1ccc(F)cc1 (stereo not given)	-15%
O=C1COc2ccc(C(=O)COC(=O)c3ccc4ccccc4n3)cc2N1	-13%
Cc1cccc(C)c1NC(=O)C(NS(=O)(=O)c1cccs1)c1ccccc1 (stereo not given)	-5%&-11%
COc1ccc(NC(=O)C2C3CCC4C(CCC32)C4(Cl)Cl)cc1 (stereo not given)	-8%

# Remaining list, next part
compound	VDR inhibitor
O=C(CCc1nnc(Cc2ccc(-c3ccccc3)cc2)o1)N1CCCC1	-17%
Cc1ccc(C2=NN(C(=O)CCC(=O)O)C(c3cccc([N+](=O)[O-])c3)C2)cc1 (stereo not given)	-16%
CC(OC(=O)CNC(=O)c1cccc(F)c1)C(=O)NC1CCCCC1C (stereo not given)	-20%
CN1OC(c2ccccc2)=C(CO)C1c1ccccc1 (stereo not given)	-3%
COc1ccccc1NS(=O)(=O)c1ccc(NC(=O)CCNC(=O)c2ccco2)cc1	2%
COc1nc(OC)nc(Oc2ccc([N+](=O)[O-])cc2Cl)n1	12%
Cc1ccccc1CNCc1ccc2c(c1)OCO2	1%
O=C(c1cccc(C(F)(F)F)c1)N(c1ccccn1)C1CCCCC1	-5%
CC(=O)Nc1ccc(C2=NN(Cc3nnc(-c4ccccc4)o3)C(=O)SC2)cc1	-9%
COc1ccc(NC(=O)NN(C(=O)c2ccccc2)C(C)(C)C)cc1	-24%
CC(C)(C)c1ccc(C(=O)N2CCC(=O)N([C@H](COCc3ccc(Cl)cc3)Cc3ccccc3)CC2)cc1	?
COc1ccc(Cc2nnc(NC(=O)CS(=O)(=O)c3ccccc3)s2)cc1OC	-7%
